TRPV1 potentiator = HTS Assay for Compounds that Act as Potentiators of the Vanilloid Receptor 1; potentiation, % at 8.33 µM; 320,000 tested, 0.02% active; TRPV1-expressing cells, Fluo-8 calcium influx, capsaicin EC20 potentiation; host cell line not named in the record; control for the full effect not named in the record; Transient receptor potential cation channel subfamily V member 1 (Homo sapiens), Q8NER1; AID 540277, 2011; active means potentiation above 80%; inconclusive means 30% to 80%; inactive means below 30%; also: 0% is about no effect
Target sequence (Q8NER1 whole entry, looked up): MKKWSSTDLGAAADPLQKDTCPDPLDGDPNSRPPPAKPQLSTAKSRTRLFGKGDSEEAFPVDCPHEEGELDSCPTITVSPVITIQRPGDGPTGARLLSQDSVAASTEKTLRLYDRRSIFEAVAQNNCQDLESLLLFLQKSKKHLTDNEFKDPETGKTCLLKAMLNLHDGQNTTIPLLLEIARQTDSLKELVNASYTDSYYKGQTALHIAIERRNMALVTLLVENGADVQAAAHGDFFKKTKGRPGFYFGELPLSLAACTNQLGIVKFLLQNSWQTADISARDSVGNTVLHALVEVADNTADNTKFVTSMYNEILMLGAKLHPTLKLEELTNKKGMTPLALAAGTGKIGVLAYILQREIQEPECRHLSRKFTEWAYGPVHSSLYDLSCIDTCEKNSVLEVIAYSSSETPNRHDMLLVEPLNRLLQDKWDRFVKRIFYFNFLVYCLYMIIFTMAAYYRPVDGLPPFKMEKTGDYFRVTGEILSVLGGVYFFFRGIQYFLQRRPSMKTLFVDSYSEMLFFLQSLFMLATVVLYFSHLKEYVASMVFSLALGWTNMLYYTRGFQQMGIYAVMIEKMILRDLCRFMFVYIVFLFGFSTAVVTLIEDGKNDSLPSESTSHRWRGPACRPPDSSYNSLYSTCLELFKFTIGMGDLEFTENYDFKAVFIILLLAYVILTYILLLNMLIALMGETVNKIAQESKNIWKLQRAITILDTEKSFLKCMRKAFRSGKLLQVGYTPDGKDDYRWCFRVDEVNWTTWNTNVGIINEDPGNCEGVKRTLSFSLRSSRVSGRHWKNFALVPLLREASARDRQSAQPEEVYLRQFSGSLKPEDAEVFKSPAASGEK
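Fluo-8 calcium influx in TRPV1-expressing cells, kinetic read (ex 480/em 520 nm). Compound added and read 3 min for agonist activity, followed by capsaicin at EC20 final and 2 min further read for enhancement.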
gsp antag = qHTS for Antagonists of gsp, the Etiologic Mutation Responsible for Fibrous Dysplasia/McCune-Albright Syndrome: qHTS; gsp-mutant cells, cAMP HTRF, 30 min; control for the full effect not named in the record; Potency, µM (top dose mostly 76.9 µM), inactives show top-dose activity change, negative = inhibition, most hits filed as inhibitors; 340,000 tested, 0.4% active; active = falling curve of any shape with a large fitted effect; inconclusive = falling curve, mostly with a smaller effect; inactive = flat or rising curve; cell line not stated here;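 also: intracellular cAMP measured with PDE inhibitor Ro 20-1724 present during compound exposure; potency is read from the fitted curve at half-maximal effect; % is scaled to controls: 0 for no effect and ±100 for the full control effect; nearly all actives have a fitted effect of over 65% in size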
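HTRF cAMP read-out (cAMP-d2 plus anti-cAMP antibody-K in lysis buffer, 30 min RT). Before lysis, cells are exposed to compounds with […] for 30 min at 37C in DPBS containing Ca/Mg, BSA and Tween 20.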
Sfp PPTase inh = qHTS Assay for Inhibitors of Bacillus subtilis Sfp phosphopantetheinyl transferase (PPTase); 4'-phosphopantetheinyl transferase ffp (Bacillus subtilis), Q9F4F7; Biochemical Sfp PPTase activity, qHTS; Potency, µM, for inactives: max response, negative = inhibition, usual class: inhibitors; 310,000 tested, 3.5% active; active = well fitted inhibition curve with a large enough effect; inconclusive = small, poorly fitted or top-dose-only effect, or another doubt; inactive = no such curve, though single readings can be large or run the other way;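 also: the enzyme is Sfp with the accession as filed and its product quenches rhodamine fluorescence; potency is read from the fitted curve at half-maximal effect; 0% = enzyme reaction without inhibitor and -100% = no enzyme wells; top concentration of the series not given in the record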
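Fluorescence-quenching assay: 15 nM Sfp-PPTase preincubated 15 min at room temperature with compound, then 5 uM rhodamine-CoA and 12.5 uM BHQ-2-labelled YbbR peptide added. Fluorescence (ex 525/em 598 nm) read at start and after 30 min; difference gives rate.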
ClpP mod = qHTS Assay for Activators of ClpP; ATP-dependent Clp protease proteolytic subunit (Bacillus subtilis (strain 168)), P80244; purified B. subtilis ClpP, FRET peptide cleavage, 20 min; Potency, µM (series often up to 57.5 µM), inactives show at the top dose activity change, negative = active; 340,000 tested, 1.9% active; AID 651965, 2013; active = well fitted falling curve with a large enough effect; inconclusive = small, poorly fitted or top-dose-only effect; inactive = no such curve, though single readings can be large or run the other way; also: potency is read from the fitted curve at half-maximal effect; the source files actives as falling curves though it sought activators and does not explain the sign; nearly all actives have a fitted effect of over 65% in size; many hits overshoot -100%
Target sequence (P80244 whole entry, looked up): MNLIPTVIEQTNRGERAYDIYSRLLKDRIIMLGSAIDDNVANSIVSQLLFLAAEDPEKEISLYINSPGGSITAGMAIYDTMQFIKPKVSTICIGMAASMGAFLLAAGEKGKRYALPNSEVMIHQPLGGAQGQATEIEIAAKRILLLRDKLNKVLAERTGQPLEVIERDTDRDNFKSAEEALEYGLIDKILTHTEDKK
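ClpP 10 microg/mL final, pH 8 Tris/KCl buffer with BSA, glycerol, Tween-20; compound pinned in; FRET-FV substrate; RT 20 min; Ex320/Em430; ΔFRET vs ADEP 5.8 microM, DMSO, no enzyme.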
Menin MLL FP FL = qHTS Assay for Inhibitors Targeting the Menin-MLL Interaction in MLL Related Leukemias: Competition With Fluorescein Labeled MLL-derived Peptide. Fluorescence polarization, fluorescein-MLL peptide displacement from menin. FP activity change, % at 61.4 µM. 290,000 tested, under 10 active. AID 1766, 2009; inconclusive = falling polarisation curve, or a change in total fluorescence; inactive = total fluorescence flat and polarisation flat or rising; no compound was filed as active; the % refers to the polarisation; negative = inhibition;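 also: % of control where 0% means no effect; inhibitors lower the polarisation; unlabelled MLL peptide was the positive control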
D2 PAM = Beta-Arrestin HTS for Positive Allosteric Modulators of the Human D2 Dopamine Receptor: Potentiators; D(2) dopamine receptor (Homo sapiens), P14416; DiscoveRx D2 beta-arrestin cells, luminescence, 90 min; 100% = 57 uM dopamine signal; potentiation, % (no concentration beside the values); 360,000 tested, 0.23% active; AID 624464, 2012; active = potentiation of 50% or more; inconclusive = 30% to 50%; inactive = 30% or less;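 also: compound concentration not given in the record; tested on top of an EC20 dose of dopamine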
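D2 cells co-treated with compound plus 50 nM dopamine (EC20) for 90 min at 37 deg C to detect potentiation. Beta-arrestin recruitment was read as enzyme-fragment luminescence after 1 h at ambient temperature. Full response was set by 57 uM dopamine.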
gsp agonist = qHTS for Agonist of gsp, the Etiologic Mutation Responsible for Fibrous Dysplasia/McCune-Albright Syndrome: qHTS; 340,000 tested, 0.13% active; Potency, µM (series often up to 76.9 µM), for the others: at the highest dose activation (cAMP increase), usual class: activators; gsp mutant cells, cAMP HTRF, 30 min; control for the full effect not named in the record; active = well fitted activation curve with a large enough effect; inconclusive = small, poorly fitted or top-dose-only effect, or another doubt; inactive = no such curve, though single readings can be large or run the other way; cell line not stated here;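 also: phosphodiesterase inhibitor Ro 20-1724 added with compounds to block cAMP breakdown; potency is read from the fitted curve at half-maximal effect; nearly all actives have a fitted effect of over 60% in size; about a fifth of the inactives were tested at one dose only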
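Cells in DMEM/10% FBS with G418 were pretreated with compounds in DMSO plus […] (300 uM stock) for 30 min at 37C. cAMP was measured by HTRF (cAMP-d2 plus anti-cAMP antibody-K) after 30 min at room temperature.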
An asterisk follows results filed as active; u = inconclusive; x = no result given; [ ] = dose if it differs, or a comment. Outcome played no part in choosing rows, and some 5.1% of all compounds hit somewhere here.

Results follow in this order: ClpP mod, Menin MLL FP FL, Sfp PPTase inh, gsp agonist, D2 PAM, TRPV1 potentiator, gsp antag
CCN1C(=O)C(CC(=O)N2CCN(C(c3ccccc3)c3ccccc3)CC2)N(CC)C1=O (stereo not given)
  -2.9%, -1.4, 11%, -17%, 1, -4, 4%
CC(C)(C)NC(=O)COc1ccc(CNCc2ccccn2)cc1
  x, -3.6, -28%, u, -34, 4, 5%
CC(C)c1nnc(NC(=O)CN2C(=O)c3ccccc3C2=O)s1
  -2.4%, 0.6, -12%, -16%, 4, 10, -7%
COc1cc(CC(=O)OCC(=O)N2CCN(C(=O)c3ccco3)CC2)cc(OC)c1OC
  0.2%, x, x, -35%[inhibitor], -3, x, 12%
O=C(CN1CCN(S(=O)(=O)c2ccccc2F)CC1)N1CCc2ccccc2C1
  1.2%, x, x, 6%[15.4 µM], -21, x, 1%
Cc1ccccc1NC(=O)Cn1c(=O)n(CC2CCCO2)c(=O)c2ccccc21 (stereo not given)
  -19%, 3.2, -12%, 14%, -8, 9, -9%
CC(=O)Nc1ccc(Sc2ccccc2C(=O)N2CCCC2)cn1
  x, 0.5, 2%, -10%, -2, 8, -12%
Cc1ccc(CN(CC(=O)NC(C)(C)C)C(=O)CNC(=O)c2cccs2)cc1
  x, 0.3, 25%, u, -4, -5, -8%
COc1ccc(C2=NOC(C)(c3nnc(-c4ccccc4)o3)C2)cc1 (stereo not given)
  0.8%, x, x, x, 25, x, -17%
CCN(CC)Cc1c(C(=O)N/N=C/c2cccc(OCc3cccc(Cl)c3)c2)nnn1-c1nonc1N
  -3.9%, x, 4%, -3%, -8, -25, -7%
COc1cc(-c2nnc(COC(=O)C3c4ccccc4Oc4ccccc43)o2)cc(OC)c1OC
  -2.5%, 3.4, 19%, 7%, -8, -4, 15%
Cc1ccc(NC(=O)CCN2C(=O)CSC2=O)cc1
  0.0%, 1.0, -11%, -24%, -8, 1, 4%
CCOC(=O)c1ccc(N2C(=O)CC(N3CCN(C(=O)c4ccccc4)CC3)C2=O)cc1 (stereo not given)
  -0.7%, 6.1, -5%, u, -3, -1, 10%
CCC(C)(C)NC(=O)C(OC(=O)c1ccco1)c1ccccc1OC (stereo not given)
  -1.2%, -1.0, 15%, -8%, -13, -1, 5%
CC1=Nc2ccc(C)cc2/C1=C/c1c(N)n2nc(CC(=O)N3CCOCC3)sc2nc1=O
  1.6%, x, 9%, 10%, -4, 5, 4%
Cc1ccc(NS(=O)(=O)c2ccc3c(c2)oc(=O)n3C)cc1
  -2.1%, 3.3, 14%, 6%[15.4 µM], -4, 6, -4%
Cn1c(=NC(=O)CS(=O)(=O)c2ccccc2)sc2cc(F)ccc21
  -13%, x, x, -4%, -29, x, x
CCCCc1ccc(NC(=O)CSc2nc(=O)n(CCN3CCOCC3)c3c2CCC3)cc1
  1.0%, x, x, -1%, -15, 2, -20%
O=C(N/N=C\c1c(O)ccc2ccccc12)c1ccc(Cn2cccn2)o1
  3.4%, u, 2%, u, -7, -14, 4%
Cc1ccc(C2=[N+]([O-])C(C)(C)N(O)C2(C)C)cc1
  -2.6%, x, 3%, -10%, -4, 20, 2%
O=C(Nn1cnnc1)c1csc2ccccc12
  1.4%, 1.0, 12%, -21%, -1, 0, -15%
O=C(CNC(=O)Cn1cnc2sc3c(c2c1=O)CCCC3)NCc1ccccn1
  0.3%, 3.7, 0%, 8%, -6, 11, 2%
O=C(NCCCN1CCCC1=O)C(=O)NCC1OCCN1S(=O)(=O)c1ccc(Cl)cc1 (stereo not given)
  -1.9%, x, 17%, -4%, 4, -2, 4%
C=CCn1c(CSCc2ccc(Cl)cc2Cl)nnc1SCC(=O)Nc1ccc(C(=O)O)cc1
  -1.7%, 1.0, 11%, u, -13, 1, -27%
COc1ccc(OC)c(CC(NC(C)=O)C(=O)NC2CCN(c3nnnn3-c3ccccc3)CC2)c1 (stereo not given)
  -1.4%, -1.3, 13%, 33%, -9, 2, 4%
O=C(O)c1cccc(S(=O)(=O)Nc2ccc(O)c(Sc3nc4ccccc4s3)c2)c1
  x, -2.6, -2%, 22%, -6, 3, 8%
COc1ccc(CCNC2=CC(=O)N(c3ccc(F)cc3)C2=O)cc1
  -1.5%, 4.1, 21%, -11%[15.4 µM], -1, 11, -12%
O=C(O)COc1cccc(NC(=O)c2ccccc2)c1
  -0.8%, 1.8, 6%, -29%, 1, 9, -4%
Cc1ccccc1OCCn1cc(C(=O)O)c2ccccc21
  x, 1.7, 12%, -13%, -1, 19, -4%
CCOc1ccc(CCNc2nc3ccc(C)cc3n3cnnc23)cc1OCC
  x, 4.7, 12%, 1%, -1, 15, 17%
CC(=O)OC(C(=O)NC1CCCCC1)c1ccccc1 (stereo not given)
  0.6%, -1.5, 0%, 10%, 6, -2, 8%
CCOC(=O)C1CCN(Cc2ccc(F)cc2)CC1
  1.3%, -2.9, -25%, 14%, -16, 1, 7%
O=C(Nc1ccccc1)c1ccccc1CCc1ccccc1
  3.1%, 0.0, -13%, -33%[inhibitor], -12, 11, 4%
N/C(=N\OC(=O)Cc1ccc([N+](=O)[O-])cc1)c1cccc(Br)c1
  -0.4%, 3.3, -4%, 25%[15.4 µM], u, 6, -19%
C/C(=N/OCO/N=C(\C)c1ccccc1)c1ccccc1
  -2.0%, -1.3, -1%, -3%, -3, -1, -10%
NC(=S)NN=C1c2ccccc2-c2c(F)c(F)c(F)c(F)c21
  u, x, x, u, -16, x, -22%
O=C(CCN1C(=O)/C(=C/c2ccc(Cl)cc2)SC1=S)NC1C=CS(=O)(=O)C1 (stereo not given)
  -1.4%, 4.1, -3%, 6%, -12, 0, 0%
COC(=O)c1ccc(CSc2nnc(NC(=O)C3CCCO3)s2)cc1 (stereo not given)
  -2.0%, 3.3, -5%, 3%, -11, 1, -3%
CCOc1cc(C(=O)NC2CCCCCCC2)cc(OCC)c1OCC
  0.7%, x, x, -11%, -25, x, 2%
O=C1CCC(=O)N1CCC(c1ccc(F)cc1)c1ccco1 (stereo not given)
  -1.5%, -0.7, -3%, -11%, -17, 4, 7%
C(=N\Nc1nc2ccccc2[nH]1)/c1ccc2c(c1)OCO2
  x, -3.1, -80%, 13%, -1, -7, u
Nc1c(N(CCO)C(=O)c2ccccc2OCc2ccccc2Cl)c(=O)[nH]c(=O)n1Cc1ccccc1
  1.4%, x, x, -52%[inhibitor], -16, x, 6%
Cc1ccc(OC(C)C(=O)Nc2ccccc2C(=O)N2CCOCC2)cc1 (stereo not given)
  0.4%, x, 18%, 19%[15.4 µM], -20, 16, -4%
C/C(=C\C(=O)c1ccccc1)Nc1ccc(N2CCOCC2)cc1
  0.8%, -0.3, 2%, -1%, 4, -4, -16%
CCCCCCc1nnc(NC(=O)c2ccco2)s1
  -2.6%, 3.2, 4%, 2%, -13, 14, -3%
CCOC(=O)C(NC(C)=O)C(=O)Nc1ccc(C(C)(C)C)cc1 (stereo not given)
  x, -3.5, 5%, -3%[15.4 µM], -10, -3, 10%
CCN(CC(=O)Nc1ccc(NC(C)=O)cc1)C(=O)C12CC3CC(CC(Cl)(C3)C1)C2
  0.4%, -0.3, 11%, 11%, 11, -5, 0%
CCOc1ccc(C(=O)NC2=NCCS2)cc1
  x, 2.6, -1%, x, x, u, x
O=[N+]([O-])c1cc(CN2CCN(c3ccccc3)CC2)c(O)c2ncccc12
  x, -8.5, 24%, -46%[inhibitor], -16, -1, -15%
Cc1onc(-c2c(F)cccc2Cl)c1C(O)c1ccc(F)cc1 (stereo not given)
  0.1%, -0.8, -1%, -1%[15.4 µM], -7, -7, -13%
O=C(c1cnn(-c2ccccc2)c1)c1cc(Br)ccc1O
  3.0%, x, x, -26%, -1, 0, -11%
COc1ccc(NC(=O)c2ccc(COc3ccccc3)o2)c(OC)c1
  -2.1%, -2.2, -11%, -46%[inhibitor], -4, u, u
CCc1ccc(CN(C)C(=O)c2cc(COc3cc(C)c(Cl)c(C)c3)on2)nc1
  1.6%, x, 8%, 10%, -8, -6, -16%
CCOc1cc(N2CCOCC2)c(OCC)cc1NC(=O)COC(=O)CCOc1ccc(C)cc1
  -1.0%, x, x, u, -2, u, -6%
Clc1nc(Nc2ccc(N3CCOCC3)cc2)c2ccccc2n1
  x, 4.6, -6%, -11%[15.4 µM], -2, -5, -4%
CCOc1ccccc1NC(=O)[C@@H](NC(=O)c1cccc(S(=O)(=O)N2CCOCC2)c1)C(C)C
  x, -2.5, 4%, -56%[inhibitor], -4, 1, 0%
COC(=O)C1=NNCC12CC(=O)N(c1ccc(Br)cc1)C2=O (stereo not given)
  -2.0%, 2.5, 2%, -17%[15.4 µM], -5, 8, 8%
CC(C)c1ccc(NC(=O)CSc2ncccc2C(=O)Oc2cccc([N+](=O)[O-])c2)cc1
  x, 1.5, -20%, 1%[15.4 µM], -2, -1, 5%
Cc1onc(-c2c(F)cccc2Cl)c1C(=O)Nc1cccc(Cn2cccn2)c1
  -0.2%, -0.8, 10%, u, -9, 4, -7%
Cc1ccnc(NS(=O)(=O)c2ccc(N=CC3=C(O)CC(C)(C)CC3=O)cc2)n1
  -6.1%, u, -5%, u, -6, 0, 3%
Cc1cccc(C)c1NC(=O)c1ccc(CN2CCc3ccccc3C2)cc1
  -0.9%, 2.4, 3%, 14%, -34, 18, -12%

Screens: PubChem BioAssay, National Center for Advancing Translational Sciences (NCATS)
